Bioassay records from PubChem BioAssay.
ClpP mod: qHTS Assay for Activators of ClpP; purified B. subtilis ClpP, FRET peptide cleavage, 20 min; Potency, µM (doses to about 57.5 µM), for the others: at the highest dose activity change, negative = active; 1.9% of 340,000 active; ATP-dependent Clp protease proteolytic subunit (Bacillus subtilis (strain 168)), P80244; active = well fitted falling curve with a large enough effect; inconclusive = small, poorly fitted or top-dose-only effect; inactive = no such curve, though single readings can be large or run the other way; note: potency is the fitted concentration of half-maximal effect; the source files actives as falling curves though it sought activators and does not explain the sign; nearly all actives have a fitted effect of over 65% in size; many hits overshoot -100%
Target sequence (P80244 whole entry, looked up): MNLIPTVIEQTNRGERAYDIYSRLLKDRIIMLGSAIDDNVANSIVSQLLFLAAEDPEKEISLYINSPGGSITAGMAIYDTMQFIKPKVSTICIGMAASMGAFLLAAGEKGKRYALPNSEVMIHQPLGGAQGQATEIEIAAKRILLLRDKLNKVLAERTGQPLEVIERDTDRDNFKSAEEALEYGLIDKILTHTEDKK
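ClpP 10 microg/mL final, pH 8 Tris/KCl buffer with BSA, glycerol, Tween-20; compound pinned in; FRET-FV substrate; RT 20 min; Ex320/Em430; ΔFRET vs ADEP 5.8 microM, DMSO, no enzyme.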
TRPV1 potentiator: enhances activation of the human vanilloid receptor TRPV1; AID 540277; Q8NER1; TRPV1-expressing cells, Fluo-8 calcium influx, capsaicin EC20 potentiation; host cell line not named in the record; control for the full effect not named in the record; 0.02% of 320,000 active; potentiation, % at 8.33 µM; active means potentiation above 80%; inconclusive means 30% to 80%; inactive means below 30%; note: 0% is about no effect
Target sequence (Q8NER1 whole entry, looked up): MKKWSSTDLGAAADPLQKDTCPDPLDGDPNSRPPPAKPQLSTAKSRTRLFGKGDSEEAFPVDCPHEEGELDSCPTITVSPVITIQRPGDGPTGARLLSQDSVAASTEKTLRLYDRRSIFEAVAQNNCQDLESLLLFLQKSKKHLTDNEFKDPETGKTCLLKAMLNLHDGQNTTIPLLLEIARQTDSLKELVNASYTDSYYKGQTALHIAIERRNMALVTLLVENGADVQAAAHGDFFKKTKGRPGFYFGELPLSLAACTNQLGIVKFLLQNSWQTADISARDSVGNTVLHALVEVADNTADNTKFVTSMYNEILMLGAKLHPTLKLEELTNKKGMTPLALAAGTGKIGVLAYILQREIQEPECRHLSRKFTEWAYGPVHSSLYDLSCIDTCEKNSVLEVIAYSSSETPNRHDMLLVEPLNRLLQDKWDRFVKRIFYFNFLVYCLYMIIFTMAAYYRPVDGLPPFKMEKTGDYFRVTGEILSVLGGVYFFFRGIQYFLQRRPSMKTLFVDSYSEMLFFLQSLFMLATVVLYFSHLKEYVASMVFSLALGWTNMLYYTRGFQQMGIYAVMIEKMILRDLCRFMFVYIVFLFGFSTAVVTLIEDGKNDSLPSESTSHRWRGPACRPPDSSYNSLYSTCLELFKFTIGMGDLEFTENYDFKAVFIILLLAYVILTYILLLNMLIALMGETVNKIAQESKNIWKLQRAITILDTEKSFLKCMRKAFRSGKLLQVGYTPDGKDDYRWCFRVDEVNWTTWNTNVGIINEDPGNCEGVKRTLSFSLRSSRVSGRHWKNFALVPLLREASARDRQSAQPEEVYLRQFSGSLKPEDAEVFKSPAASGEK
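TRPV1-expressing cells were cultured overnight at 35.5C and loaded with Fluo-8 calcium dye for 40 to 90 min at room temperature. After a 10 s baseline, compound was added and calcium influx was read kinetically for 3 min (ex 480/em 520 nm).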
Menin-MLL FL inh: inhibitors of human menin-MLL interaction, wild-type MLL peptide. Fluorescence polarization, fluorescein-MLL peptide displacement from menin. 290,000 tested, under 10 active. FP activity change, % at 61.4 µM. AID 1766; inconclusive = falling polarisation curve, or a change in total fluorescence; inactive = total fluorescence flat and polarisation flat or rising; no compound was filed as active; the % refers to the polarisation; negative = inhibition;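 note: % of control where 0% means no effect; inhibitors lower the polarisation; unlabelled MLL peptide was the positive control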
gsp agonist: activates gsp, the McCune-Albright syndrome mutation; gsp mutant cells, cAMP HTRF, 30 min; control for the full effect not named in the record; 0.13% of 340,000 active; Potency, µM (doses to about 76.9 µM), inactives show at the highest dose activation (cAMP increase), actives largely listed as activators; AID 624287; active = well fitted activation curve with a large enough effect; inconclusive = small, poorly fitted or top-dose-only effect, or another doubt; inactive = no such curve, though single readings can be large or run the other way; cell line not stated here;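 note: phosphodiesterase inhibitor Ro 20-1724 added with compounds to block cAMP breakdown; potency is the fitted concentration of half-maximal effect; nearly all actives have a fitted effect of over 60% in size; about a fifth of the inactives were tested at one dose only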
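Cells in DMEM/10% FBS with G418 were pretreated with compounds in DMSO plus […] (300 uM stock) for 30 min at 37C. cAMP was measured by HTRF (cAMP-d2 plus anti-cAMP antibody-K) after 30 min at room temperature.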
CtBP-E1A blk: inhibitors of CtBP/E1A interaction; 0.49% of 340,000 active; activity change, % (test concentration not listed); AID 651724; AlphaScreen GST-E1A/His-CtBP binding, 1536-well; stronger effect = lower value; control for the full effect not named in the record; in the data active means activity change below about -65%; inconclusive means about -30% to -65%; inactive means above about -30%; note: % is set by controls: 0 for no effect and ±100 for the full control effect; compound concentration not given in the record
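Homogeneous bead-based format: GST-tagged E1A captured on glutathione donor beads, His-tagged CtBP on nickel acceptor beads; compounds precede bead addition by 2 h at 37 °C.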
gsp antag: gsp mutant antagonism. gsp-mutant cells, cAMP HTRF, 30 min; control for the full effect not named in the record. Potency, µM (top dose mostly 76.9 µM), for inactives: top-dose activity change, negative = inhibition, usual class: inhibitors. 0.4% of 340,000 active. AID 624288; active = falling curve of any shape with a large fitted effect; inconclusive = falling curve, mostly with a smaller effect; inactive = flat or rising curve; cell line not stated here;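 note: intracellular cAMP measured with PDE inhibitor Ro 20-1724 present during compound exposure; potency is the fitted concentration of half-maximal effect; % is set by controls: 0 for no effect and ±100 for the full control effect; nearly all actives have a fitted effect of over 65% in size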
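Cells, 2000/well, grown 16–24 h in DMEM 10% FBS with 0.5 mg/ml G418, then compounds plus […] (300 uM addition stock), 30 min at 37C. cAMP read by HTRF (cAMP-d2 and anti-cAMP antibody-K in lysis buffer) after 30 min RT.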
Sfp PPTase inh: blocks B. subtilis Sfp PPTase activity; AID 1490; 3.5% of 310,000 active; Biochemical Sfp PPTase activity, qHTS; Potency, µM, inactives show max response, negative = inhibition, hits mostly inhibitors; Q9F4F7; active = well fitted inhibition curve with a large enough effect; inconclusive = small, poorly fitted or top-dose-only effect, or another doubt; inactive = no such curve, though single readings can be large or run the other way;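 note: the enzyme is Sfp with the accession as filed and its product quenches rhodamine fluorescence; potency is the fitted concentration of half-maximal effect; 0% = enzyme reaction without inhibitor and -100% = no enzyme wells; top concentration of the series not given in the record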
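Buffer: 50 mM Hepes-Na pH 7.6, 10 mM MgCl2, 0.01% Nonidet P-40, 0.01% BSA. Enzyme 15 nM, pre-exposed to compound 15 min; substrates then added and fluorescence change tracked over 30 min.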
Numbers without * were called inactive; ? = inconclusive; . = not tested or not shown; [ ] = remark or other dose.

SMILES	ClpP mod	TRPV1 potentiator	Menin-MLL FL inh	gsp agonist	CtBP-E1A blk	gsp antag	Sfp PPTase inh
CC(C)(C)NC(=O)CSc1ccc(C(C)(C)C)cc1	-1.4%	-4.2	2.9	?	12.3	-24.8%	4.2%
C/C(CCC(=O)O)=N/Nc1ccc([N+](=O)[O-])cc1[N+](=O)[O-]	-3.0%	-11.3	4.4	-3.2%	-4.4	-14.2%	-3.0%
Cc1cc(NS(=O)(=O)c2ccc(NC(=S)Nc3ccc(Cl)cc3C)cc2)no1	0.7%	-6.6	2.3	5.9%[15.4 µM]	-0.6	7.2%	-18.2%
O=C1CN(S(=O)(=O)c2cccc(Br)c2)CCN1	.	.	.	?	2.5	-7.4%	.
CCOC(=O)c1oc2ccccc2c1NC(=O)COc1cccc(OC)c1	48.4%	-11.0	1.3	21.4%	4.2	6.1%	18.4%
CCOC(=O)C1CCCN(c2c(C(=O)c3ccccc3)cnc3ccc(OC)cc23)C1 (stereo not drawn)	0.0%	-2.9	-1.8	8.1%	-0.3	-19.5%	-3.6%
O=C(Oc1ccc(-c2cnc3ccccc3n2)cc1)c1ccc(Br)o1	-3.4%	21.6	5.7	-1.4%	-0.2	12.3%	-11.3%
CCOC(=O)c1ccccc1NC(=O)COC(=O)C(CCSC)NC(=O)COc1ccccc1 (stereo not drawn)	.	11.8	.	-5.7%[15.4 µM]	-4.8	-25.6%	.
CCCCNc1ccc(S(=O)(=O)c2cccc([N+](=O)[O-])c2)cc1[N+](=O)[O-]	0.5%	-4.1	2.2	-68.0%	3.9	10.0%	0.5%
O=C(O)c1cc(Cl)c(Cl)cc1C(=O)N1CCCC1	-2.2%	-3.0	-2.6	-4.3%	-8.7	3.5%	5.5%
CCn1c(=N)n(CC(O)c2ccco2)c2ccccc21 (stereo not drawn)	0.4%	7.0	?	-13.8%	37.8	6.5%	3.8%
CCOc1ccc(-c2c(C#N)c(N)nc3sc(C(=O)c4ccccc4)c(N)c23)cc1	1.5%	11.7	?	17.4%	.	?	-18.9%
CC(=O)Oc1cc2oc(=O)c3c(c2cc1Cl)CCC3	52.4%	-1.6	3.6	-33.4%	2.7	4.4%	-8.4%
Cc1ccc(N(CC(=O)N/N=C/c2ccc(OC3CSC3)cc2)S(=O)(=O)c2ccccc2)cc1	-4.0%	4.5	4.5	-40.8%[inhibitor]	-8.2	-15.5%	8.8%
Cc1ccnc(N2CCC(C(=O)Nc3ccc(Oc4ccccc4)cc3)CC2)n1	-3.1%	-4.6	-5.1	10.1%	-0.5	7.9%	7.6%
CCOc1cc(CNCCCN2CCOCC2)cc(Cl)c1OCC(=O)NC(C)(C)C	.	0.1	5.0	-36.2%[inhibitor]	1.2	8.1%	-7.7%
COc1ccc(/C=C/C(=O)Nc2ccccc2C(=O)O)cc1	.	15.0	2.3	11.1%[15.4 µM]	4.5	?	18.0%
O=C(NCCc1c[nH]c2ccccc12)C1CCC(Cn2c(=S)[nH]c3ccccc3c2=O)CC1 (stereo not drawn)	0.9%	8.8	4.1	-3.4%	-8.2	-9.9%	18.7%
O=C(O)CCSC(=S)N1CCOCC1	-2.0%	-9.3	2.4	-23.1%	5.2	4.2%	14.1%
CC(=NC(C)C)C1=C(O)CCC1=O	-3.6%	10.3	-4.7	-77.3%[inhibitor]	2.4	0.8%	7.1%
N#CC1=C(N)Oc2cc3ccccc3cc2C1c1cccs1 (stereo not drawn)	1.0%	-3.6	-14.1	-21.9%	16.1	8.3%	79.4µM*
O=C(CN1CCCC1)N1CCCc2ccccc21	.	-1.4	-7.5	-20.3%[15.4 µM]	-3.3	4.7%	-16.0%
Cc1ccc(S(=O)(=O)Nc2ccc(C(N)=O)cc2)cc1[N+](=O)[O-]	.	2.5	-1.7	2.5%[15.4 µM]	0.9	2.1%	-6.5%
CC(=O)NCCC(=O)Nc1cc(S(=O)(=O)N2CCOCC2)ccc1N1CCCC1	1.1%	3.7	.	16.9%	6.4	5.4%	.
CC(CNC(=O)COC(=O)c1cccnc1Cl)c1ccccc1 (stereo not drawn)	.	27.2	.	-16.3%[15.4 µM]	7.0	1.7%	.
Following part
SMILES	ClpP mod	TRPV1 potentiator	Menin-MLL FL inh	gsp agonist	CtBP-E1A blk	gsp antag	Sfp PPTase inh
Cc1cccc(NC(=O)/C(C#N)=C/c2ccc[nH]2)c1C	-0.8%	5.2	-2.6	3.2%	-2.7	3.2%	7.4%
COC(=O)c1c(NC(=O)c2ccccc2C(=O)O)sc2c1CCC2	1.0%	21.9	5.1	-3.4%[15.4 µM]	5.2	-3.0%	22.5%
O=C(NCc1ccco1)c1cccn2c(=O)c3c4c(sc3nc12)CCCC4	-0.6%	-3.6	-11.0	2.0%[15.4 µM]	-12.2	0.3%	44.7µM*
CCOc1ccccc1N(CC(=O)NC1CCCCC1)C(=O)CCC(=O)Nc1cc(C)ccn1	.	2.6	-0.7	8.2%[15.4 µM]	0.0	-8.6%	-10.5%
Cc1cccc(NS(=O)(=O)c2cccc(C(=O)NCC3(N4CCCCC4)CCCCC3)c2)c1	-5.8%	-11.8	.	-4.5%	-19.7	-0.2%	.
Cc1ccc(S(=O)(=O)N2CC(O)C[C@H]2C(=O)OCC(=O)c2ccccc2)cc1 (stereo partly drawn)	-0.9%	-7.8	8.2	24.7%	-8.7	-2.6%	10.3%
Cc1ccc(S(=O)(=O)Nc2cccc(-c3ccc(N4CCCCCC4)nn3)c2)cc1C	-9.9%	14.1	-1.7	15.1%	.	-19.9%	-9.3%
Cc1ccc(C(C)NC(=O)c2cccs2)cc1C (stereo not drawn)	.	.	.	0.2%	1.5	-0.7%	.
COc1ccc(OCc2cc(C(=O)N3C[C@H]4CC[C@H]3C4)no2)c(Cl)c1	.	-12.8	.	-21.3%[15.4 µM]	4.2	-1.7%	-3.8%
Cn1nccc1C(=O)N1CCN(c2ccc(F)cc2)CC1	-0.4%	1.2	-0.7	-9.2%	1.5	-15.8%	-3.9%
O=C1CN(C(=O)CN2CCN(S(=O)(=O)c3ccccc3)CC2)c2ccccc2N1	0.0%	.	.	-15.3%	-0.3	.	.
COc1ccc(/C=C/C(=O)C2CC2)cc1COc1c(C)cccc1C	.	6.6	1.6	21.5%[15.4 µM]	0.0	.	-9.8%
Cc1c(C(=O)O)nn(-c2cccc(C(F)(F)F)c2)c(=O)c1C#N	.	3.4	2.6	-17.0%	4.0	2.2%	5.2%
CC1CC(C)CN(C(=O)c2ccc(S(=O)(=O)N3CCCCC3)cc2)C1 (stereo not drawn)	1.9%	-8.1	.	?	3.1	-9.2%	-2.2%
CN(C(=O)c1cccc(N2C(=O)C3CC=CCC3C2=O)c1)C1CCCCC1 (stereo not drawn)	0.4%	-39.3	4.1	-9.5%	-0.9	13.9%	-10.9%
CCOC(=O)c1c(S(=O)(=O)NCC(=O)Nc2ccc(C)cc2)c(C)n(C)c1C	0.1%	7.8	.	33.6%	1.4	3.1%	2.2%
O=C(OCc1nnc(-c2ccc(Cl)cc2)o1)C12CC3CC(CC(O)(C3)C1)C2	.	-0.2	0.5	-1.7%[15.4 µM]	-8.2	.	5.2%
CCN(Cc1ccc(OC)c(F)c1)C(=O)CCl	.	-5.3	1.2	26.1%	6.8	4.4%	2.6%
CN1CCc2nc(NC(=O)c3cccc(OC(F)F)c3)sc2C1	-6.3%	11.7	1.9	19.0%	-3.7	-1.9%	-11.0%
O=C(CSCc1c(F)cccc1Cl)NCCc1ccccc1	-2.6%	-12.1	0.2	12.6%	.	0.2%	14.4%
Cc1ccc(NC(=O)CCNS(=O)(=O)c2ccccc2)c(C(=O)c2ccccc2)c1	-2.5%	-16.8	-4.1	-51.6%[inhibitor]	-4.2	2.9%	17.7%
CCCCN(C(=O)CSc1nnc(-c2ccco2)o1)c1c(N)n(Cc2ccccc2)c(=O)[nH]c1=O	-0.1%	19.8	0.1	24.1%	-3.7	3.4%	?
COc1ccc(NC(=O)NNC(=O)COc2ccc3cc(Br)ccc3c2)c(OC)c1	-0.7%	8.5	0.7	?	2.5	23.7%	0.4%
COc1cc(/C=C/CN2CCN(Cc3ccc(C)o3)C(CCO)C2)ccc1O (stereo not drawn)	-1.4%	-4.0	-1.4	-1.9%[15.4 µM]	-14.0	-0.4%	1.8%
COc1ccc(N/C=C2\C(=O)CCc3c2oc2cc(Cl)c(O)c(Cl)c32)cc1	2.4%	3.3	?	0.0%	.	-12.5%	-18.2%
Further records follow.
SMILES	ClpP mod	TRPV1 potentiator	Menin-MLL FL inh	gsp agonist	CtBP-E1A blk	gsp antag	Sfp PPTase inh
CN(C(=O)CCc1nc2ccccc2s1)c1ccccc1	-0.3%	-8.2	-0.1	-18.1%	7.0	7.6%	14.0%
Cc1ccc(-c2c(C(=O)O)c3ccccc3[nH]c2=O)cc1	4.3%	-19.3	-3.6	-16.4%	.	14.4%	15.2%
CC(C)OC(=O)/C(=C\C=C\c1ccccc1)NC(=O)c1ccccc1	-0.8%	-2.2	-0.6	-9.2%	2.3	12.3%	2.2%
COc1cc(/C=N/NC(=O)c2ccc(CSc3nncn3C)cc2)cc(OC)c1O	1.5%	-5.8	3.7	-0.6%[15.4 µM]	-14.5	-6.8%	-3.2%
O=C(O)C1CCCN1S(=O)(=O)c1cc(Cl)ccc1Cl (stereo not drawn)	-0.1%	0.9	-3.4	0.3%	9.4	0.4%	13.6%
CC(CC(=O)Nc1ccc(S(=O)(=O)Nc2ncccn2)cc1)c1ccccc1 (stereo not drawn)	0.7%	-6.3	0.5	-4.9%[15.4 µM]	-15.3	-0.1%	10.3%
O=C(Nc1ccc(Cl)cn1)c1cc2ccccc2o1	-7.7%	-8.4	1.3	?	52.5	25.8%	-3.7%
CCOC(=O)c1cnc(-n2nc(C)cc2C)nc1NCc1ccccc1	-15.7%	.	0.0	5.1%	?	35.5µM*	-12.2%
